Bioassay records deposited in PubChem by The Scripps Research Institute Molecular Screening Center.
PAD4 inh = inhibitors of human PAD4. recombinant PAD4, RCA probe fluorescence polarization. Q9UM07. 0.41% of 330,000 active. AID 485272. inhibition, % at 6.36 µM;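 active = percent inhibition above a cutoff equal to the mean of all tested compounds plus 3 SD, cut at about 15% in these data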;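 note: 0% = PAD4 with RCA probe and DMSO and 100% = probe without PAD4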
GSTO1 inh = blocks human GSTO1 in RBBP9 counter-screen; recombinant GSTO1, activity-based probe fluorescence polarization; P78417; AID 1974; inhibition, % at 5.96 µM; 1.1% of 300,000 active;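 active = inhibition above the campaign mean inhibition plus 3 SD, cut at about 35% in these data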;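 note: 0% = GSTO1-1 with DMSO and 100% = wells lacking GSTO1-1 enzyme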
Target sequence (P78417 whole entry, looked up): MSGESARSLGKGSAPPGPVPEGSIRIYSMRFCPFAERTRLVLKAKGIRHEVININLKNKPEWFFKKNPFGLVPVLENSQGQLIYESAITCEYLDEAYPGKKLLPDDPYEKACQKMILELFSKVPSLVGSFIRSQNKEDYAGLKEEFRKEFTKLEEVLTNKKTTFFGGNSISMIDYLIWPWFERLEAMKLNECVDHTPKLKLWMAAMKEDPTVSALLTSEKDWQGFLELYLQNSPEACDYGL
PAFAH1B2 inh = PAFAH1B2 (human) inhibition; recombinant PAFAH1B2, FP-rhodamine activity probe, fluorescence polarization; inhibition, % at 3.39 µM; P68402; 1.2% of 340,000 active;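 active = inhibition above the mean of all tested compounds plus 3 SD, cut at about 24% in these data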;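 note: 0% = enzyme with DMSO and 100% = wells lacking PAFAH1B2; many of its hits are not listed in these tables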
LYPLA1 counter = counter-screen for PME1 inhibitors: inhibitors of human LYPLA1 | O75608 | recombinant LYPLA1, FP-Rh probe fluorescence polarization | inhibition, % at 5.9 µM | 0.16% of 320,000 active | AID 2174;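 active = inhibition above the mean of all tested compounds plus 3 SD, set per campaign, cut at about 14% in these data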;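 note: inhibitors block serine hydrolase probe labeling of LYPLA1 so polarization falls; 0% = enzyme with DMSO and 100% = wells lacking LYPLA1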
Target sequence (O75608 whole entry, looked up): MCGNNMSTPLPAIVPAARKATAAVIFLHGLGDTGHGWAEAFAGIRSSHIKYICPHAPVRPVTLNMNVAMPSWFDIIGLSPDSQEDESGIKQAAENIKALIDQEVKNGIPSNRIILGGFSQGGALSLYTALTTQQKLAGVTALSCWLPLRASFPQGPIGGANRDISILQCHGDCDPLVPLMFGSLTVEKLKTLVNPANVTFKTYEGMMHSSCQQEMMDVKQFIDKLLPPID
Fam108B counter = Fam108B inhibition, counter-screen for RBBP9 inhibitors. recombinant Fam108B, FP-Rh probe fluorescence polarization. 0.33% of 300,000 active. inhibition, % at 9.51 µM;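 active = inhibition above the screen mean inhibition plus 3 SD, computed separately per campaign, cut at about 18% in these data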;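 note: inhibitors lower polarization as less probe binds the enzyme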
PAFAH1B3 FP inh = PAFAH1B3 (human) inhibition | Q15102 | recombinant PAFAH1B3, FP-rhodamine probe, fluorescence polarization | inhibition, % at 3.39 µM | 0.28% of 340,000 active;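 active = inhibition above the screen-wide average of all tested compounds plus 3 SD, cut at about 25% in these data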;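 note: 0% = enzyme with DMSO only and 100% = wells lacking PAFAH1B3 protein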
PAFAH2 inh = inhibitors of human PAFAH2 | Q99487 | recombinant PAFAH2, FP-rhodamine activity probe, fluorescence polarization | inhibition, % at 3.39 µM | 0.99% of 340,000 active | AID 492956;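 active = inhibition above the mean over all tested compounds plus 3 SD, cut at about 30% in these data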;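 note: inhibitors block probe labeling of enzyme so polarization drops; 0% = enzyme with DMSO and 100% = wells lacking PAFAH2 protein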
pPAFAH inh = pPAFAH (human) enzyme inhibition | 1.5% of 330,000 active | Q13093 | recombinant pPAFAH, FP-rhodamine probe fluorescence polarization | inhibition, % at 3.39 µM;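 active = inhibition above the mean inhibition across the screen plus 3 SD, cut at about 25% in these data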;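 note: inhibitors block binding of the rhodamine activity-based probe so polarization drops; 0% = enzyme with DMSO and 100% = wells lacking pPAFAH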
Starred values were filed as active, the others as inactive; x = no result given. These rows are one share of the data, so the mix of outcomes need not match the whole.

| SMILES | PAD4 inh | GSTO1 inh | PAFAH1B2 inh | LYPLA1 counter | Fam108B counter | PAFAH1B3 FP inh | PAFAH2 inh | pPAFAH inh |
| --- | --- | --- | --- | --- | --- | --- | --- | --- |
| C[C@H](NC(=O)c1nc[nH]c1C(=O)NC1CCN(C(=O)OC(C)(C)C)CC1)C(=O)OC(C)(C)C | -6 | 2 | -4 | 2 | -5 | 3 | -5 | 4 |
| CCC(C)Nc1nc(-c2cccc(OC)c2O)nc2ccccc12 (stereo unspecified) | -1 | -2 | 2 | -7 | 4 | 10 | 3 | 14 |
| O=C1NC2(CCCCCC2)C(=O)N1Cc1ccc(Cl)cc1Cl | 3 | 8 | 6 | -2 | 0 | 3 | -7 | -1 |
| O=C(Nc1ccc(OC(F)F)c(Cl)c1)Nc1ccc2c(c1)OCO2 | -5 | -9 | 4 | -14 | 4 | 11 | 0 | 3 |
| O=C1CCCN1c1ccc(S(=O)(=O)N2CCC(c3ccccc3)CC2)cc1 | 0 | 2 | 1 | -2 | 0 | 3 | 6 | -7 |
| Cc1ccc(C)c(NS(=O)(=O)c2ccc(-c3cnc(C4CC4)o3)cc2)c1 | -5 | 2 | 2 | 2 | -1 | 9 | 9 | 33* |
| CCOc1ccc(NC(=O)Nc2cccn(Cc3ccccc3)c2=O)cc1 | -1 | -10 | 3 | -1 | 1 | 8 | 4 | -6 |
| Cc1nc2c(sc3nc(N4CCOCC4)c4c(c32)CC(C)(C)OC4)c(-c2ccccc2)c1C(=O)O | 3 | 1 | 2 | -4 | 0 | 2 | 4 | 8 |
| Cc1cc(C)c(NC(=O)C2CCCN2CCOC(=O)c2ccccc2)c(C)c1 (stereo unspecified) | -2 | 9 | 2 | -3 | -3 | 3 | -4 | 3 |
| O=C(c1ccccc1Cl)N1CCCC(c2nc3c(nnn3Cc3ccccc3)c(=O)[nH]2)C1 (stereo unspecified) | 5 | 2 | 4 | 2 | 3 | -1 | 0 | 2 |
| Cc1sc2ncnc(Sc3nnc4sc5ccccc5n34)c2c1C | 6 | 5 | x | 2 | 1 | x | x | 2 |
| Cn1nc(-c2ccc(Cl)cc2)cc1NC(=O)CC(C)(C)CC(=O)O | -2 | -6 | x | -1 | -1 | x | x | 2 |
| Cc1c(NC(=O)C(C)N(c2ccccc2)S(C)(=O)=O)c(=O)n(-c2ccccc2)n1C (stereo unspecified) | -7 | 0 | -1 | -1 | 5 | 4 | 2 | -1 |
| COc1cccc(NC(=O)COc2ncnc3sc(C)c(C)c23)c1 | 2 | 4 | 5 | 3 | 1 | -2 | 2 | -6 |
| COC(=O)C1=C(C)N=C2SC(C#N)=C(N)N2C1c1cc(OC)c(OC)c(OC)c1 (stereo unspecified) | -2 | -1 | 1 | 1 | -3 | 0 | -7 | 2 |
| CCOC(=O)c1sc(NC(=O)Nc2ccccc2)cc1C | -3 | -12 | 13 | -14 | -1 | 27* | -19 | 2 |
| O=S(=O)(Nc1ccc(F)cc1Cl)c1ccc(-c2cnc(C3CC3)o2)cc1 | -2 | -2 | 1 | -2 | 0 | 9 | 3 | 9 |
| CC(=O)c1ccc(N2CCN(C(=O)C3CCN(S(=O)(=O)c4cccs4)CC3)CC2)cc1 | 2 | 12 | 3 | 4 | -2 | 2 | 11 | 6 |
| Cc1ccc(S(=O)(=O)c2cccc(S(=O)(=O)N3CCCC3)c2)cc1S(=O)(=O)N1CCCC1 | -4 | -3 | 3 | -1 | -2 | 12 | 5 | 2 |
| CCCn1c(C)cc(C(=O)COc2ccc(S(=O)(=O)N(CC)CC)cc2[N+](=O)[O-])c1C | 2 | 16 | -1 | 3 | -5 | -3 | 2 | 11 |

Single records (already shown). Order of screens: PAD4 inh | GSTO1 inh | PAFAH1B2 inh | LYPLA1 counter | Fam108B counter | PAFAH1B3 FP inh | PAFAH2 inh | pPAFAH inh
`Cc1ccc(S(=O)(=O)c2cccc(S(=O)(=O)N3CCCC3)c2)cc1S(=O)(=O)N1CCCC1` is entered as -4 | -3 | 3 | -1 | -2 | 12 | 5 | 2
`COC(=O)C1=C(C)N=C2SC(C#N)=C(N)N2C1c1cc(OC)c(OC)c(OC)c1` (stereo unspecified) is entered as -2 | -1 | 1 | 1 | -3 | 0 | -7 | 2
`Cn1nc(-c2ccc(Cl)cc2)cc1NC(=O)CC(C)(C)CC(=O)O` is entered as -2 | -6 | x | -1 | -1 | x | x | 2
`COc1cccc(NC(=O)COc2ncnc3sc(C)c(C)c23)c1` is entered as 2 | 4 | 5 | 3 | 1 | -2 | 2 | -6
`Cc1c(NC(=O)C(C)N(c2ccccc2)S(C)(=O)=O)c(=O)n(-c2ccccc2)n1C` (stereo unspecified) is entered as -7 | 0 | -1 | -1 | 5 | 4 | 2 | -1

Carrying on.
| SMILES | PAD4 inh | GSTO1 inh | PAFAH1B2 inh | LYPLA1 counter | Fam108B counter | PAFAH1B3 FP inh | PAFAH2 inh | pPAFAH inh |
| --- | --- | --- | --- | --- | --- | --- | --- | --- |
| O=C1N(Cc2ccccc2)c2ccccc2C12OCCO2 | -1 | 8 | -2 | 7 | -4 | 10 | 2 | 25* |
| C[C@H](NC(=O)c1nc[nH]c1C(=O)N1CCc2ccccc2C1)C(=O)OC(C)(C)C | -6 | 13 | 7 | 0 | 2 | 11 | -3 | 1 |
| CCN(CC)S(=O)(=O)c1ccc(Cl)c(C(=O)NCc2ccccc2Cl)c1 | -6 | 2 | 0 | -1 | -2 | -3 | -8 | 4 |
| COc1ccc(C2=CC(=O)C[C@H](c3ccc(OC)c(OC)c3)C2)cc1 | -2 | x | 2 | 1 | x | 3 | 9 | 5 |
| O=C(NC(=S)Nc1ccc(CN2CCCCC2)cc1)c1ccco1 | -11 | 18 | 3 | -3 | -6 | 8 | 2 | -11 |
| Cc1ccc([N+](=O)[O-])cc1S(=O)(=O)Nc1ccc(-c2ccc(N3CCCC3)nn2)cc1 | -5 | 2 | 5 | -2 | 4 | 6 | 2 | 17 |

Shown with two lines to a compound: two of the compounds above.
Every second line gives: PAD4 inh, GSTO1 inh, PAFAH1B2 inh, LYPLA1 counter, Fam108B counter, PAFAH1B3 FP inh, PAFAH2 inh, pPAFAH inh
O=C(NC(=S)Nc1ccc(CN2CCCCC2)cc1)c1ccco1
    -11, 18, 3, -3, -6, 8, 2, -11
Cc1ccc([N+](=O)[O-])cc1S(=O)(=O)Nc1ccc(-c2ccc(N3CCCC3)nn2)cc1
    -5, 2, 5, -2, 4, 6, 2, 17
